Screens (PubChem)
VACV E9 pol inh – blocks vaccinia virus processive DNA synthesis; in vitro processive DNA synthesis, absorbance read-out; hits give low values; some inactives read as strong as hits; normalized absorbance, % (no concentration beside the values); 46,000 compounds, 0.94% hits; AID 493162;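 active = replicate mean up to 90% and picked by the depositor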;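 note: 100% = median of the test wells of a plate; 100 nL library stock went into each well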
Starred values were filed as active, the others as inactive. These rows are one share of the data, so the mix of outcomes need not match the whole.

SMILES | VACV E9 pol inh
Cc1cccc(N(C)Cc2nnc(-c3cccc(Br)c3)o2)c1 | 104.9
CCC(C)(C(=O)NC1CCCC1)N(C(C)=O)c1ccc(C)cc1 (stereo unspecified) | 102.3
CN(C)C(=S)Nc1cc(C(F)(F)F)cc(C(F)(F)F)c1 | 90.7
OC(CN1CCCCC1)Cn1ccc2ccccc21 (stereo unspecified) | 101.0
CSC1=NCC(=O)N1Cc1cccc(Cl)c1 | 106.9
Cc1ccc2[nH]c3c(N(C)C)ncnc3c2c1 | 96.9
CN(C)c1ccc(C(=O)Nc2nc3ccc(Cl)cc3s2)cc1 | 87.0
O=C(C1Cc2ccccc2C1)N1CCOCC1 | 105.2
C1CCc2nnc(C3CC3)n2CC1 | 80.4
COc1cc2c(cc1OC)C(CC(=O)Nc1ccccc1)C(=O)N(C(C)=O)N=C2C (stereo unspecified) | 97.9

Reprinted at random: 5 entries already listed, in no set order.
SMILES | VACV E9 pol inh
C1CCc2nnc(C3CC3)n2CC1 | 80.4
Cc1cccc(N(C)Cc2nnc(-c3cccc(Br)c3)o2)c1 | 104.9
COc1cc2c(cc1OC)C(CC(=O)Nc1ccccc1)C(=O)N(C(C)=O)N=C2C (stereo unspecified) | 97.9
OC(CN1CCCCC1)Cn1ccc2ccccc21 (stereo unspecified) | 101.0
CSC1=NCC(=O)N1Cc1cccc(Cl)c1 | 106.9

A second format for part of the listing above.
O=C(C1Cc2ccccc2C1)N1CCOCC1
  VACV E9 pol inh: 105.2

C1CCc2nnc(C3CC3)n2CC1
  VACV E9 pol inh: 80.4

COc1cc2c(cc1OC)C(CC(=O)Nc1ccccc1)C(=O)N(C(C)=O)N=C2C (stereo unspecified)
  VACV E9 pol inh: 97.9

Returning to the listing, repeating the five entries before the break.
SMILES | VACV E9 pol inh
Cc1ccc2[nH]c3c(N(C)C)ncnc3c2c1 | 96.9
CN(C)c1ccc(C(=O)Nc2nc3ccc(Cl)cc3s2)cc1 | 87.0
O=C(C1Cc2ccccc2C1)N1CCOCC1 | 105.2
C1CCc2nnc(C3CC3)n2CC1 | 80.4
COc1cc2c(cc1OC)C(CC(=O)Nc1ccccc1)C(=O)N(C(C)=O)N=C2C (stereo unspecified) | 97.9
c1ccc(C(Sc2ccccn2)c2ccccc2)cc1 | 99.1
O=c1oc2ccc(Br)cc2cc1S(=O)(=O)c1ccc(Cl)cc1 | 104.3
O=c1ccnc(SCc2ccccc2Cl)[nH]1 | 99.3
O=C(Cn1cnc(S(=O)(=O)N2CCCC2)c1)NC1CCN(Cc2ccccc2)CC1 | 109.7
Nc1ccc(C(O)(C(F)(F)F)C(F)(F)F)cc1 | 100.6
N#CCC(=O)c1ccccc1 | 100.2
O=C(c1cc(-c2ccccc2)n[nH]1)N1CCCCC1 | 101.5
Cc1ccc2c(Sc3ccc(Cl)cc3)c(C(=O)NC3CCCC3)[nH]c2c1 | 103.2
CN(C(=O)c1ccc2c(Cl)c3c(nc2c1)CCCC3)c1ccc(Cl)cc1 | 99.6
O=C1CCC(C(=O)Nc2ccccc2N2CCOCC2)=NN1 | 103.0
O=C1Nc2c(ccc(Cl)c2Cl)C(=O)C1(F)c1ccccc1 (stereo unspecified) | 90.8
Cc1[nH]c2ccc(CNC(=O)Nc3ccc(F)cc3F)cc2c1C | 88.6
COc1ccc(/C=C2\SC(=O)N(c3ccc(C)cc3)C2=O)cc1 | 99.8
CCCCn1c(=S)[nH]c2sc3c(c2c1=O)CCCC3 | 99.9
Cc1ccc(NC(=O)CC(=O)Nc2ccc(C)cc2)cc1 | 100.3
CN(C)c1nc2ccc(OCCN3CCOCC3)cc2s1 | 100.4
c1ccc(CNc2ccccn2)cc1 | 101.8
O=S(=O)(NCCOc1ccccc1)c1ccc2ccccc2c1 | 91.8
CC(C)(C)NC(=O)N1CCN(c2ncccc2C(F)(F)F)CC1 | 100.4
O=C(NCc1ccccc1Cl)C1(c2ccccc2)CCCC1 | 97.8
O=C(CC1CCOCC1)Nc1ccc(I)cc1 | 102.8
CN(C)c1ccc(C2/C(=C(/O)c3ccc(Cl)cc3)C(=O)C(=O)N2Cc2ccccc2)cc1 (stereo unspecified) | 100.3
CC(NC(=O)Cn1ncc2ccccc21)c1ccccc1 (stereo unspecified) | 98.2
COc1ccc(OCC(O)CNC(=O)c2sccc2Cl)cc1 (stereo unspecified) | 106.7
CCOc1ccccc1C1C(C(=O)N2CCOCC2)=C(C)Nc2nc3ccccc3n21 (stereo unspecified) | 98.3
COc1ccc(/C=C/C(=O)OC2CCCCC2CN(C)C)cc1 (stereo unspecified) | 101.6
CCOC(=O)c1c(-c2ccccc2)oc2ccc(O)c(CSCC(=O)Nc3ccccc3)c12 | 100.3
O=C(CCCN1C(=O)/C(=C/C=C/c2ccccc2)SC1=S)Nc1ccccn1 | 100.3
O=C(NCC1CCCO1)c1ccc(Br)o1 (stereo unspecified) | 101.0
Cc1ccc(CN(Cc2ccco2)C(=S)Nc2c(C)cc(C)cc2C)cc1 | 104.2
CCc1nnc(NC(=O)C2CC2)s1 | 101.2
C=CCNC(=O)C1C(=O)NC2(C)CC1c1ccccc1O2 (stereo unspecified) | 101.6
C=CC[C@@H]1/C=C(\C)C[C@H](C)C[C@H](OC)[C@H]2O[C@@](O)(C(=O)C(=O)N3CCCCC3C(=O)O[C@H](/C(C)=C/[C@@H]3CC[C@@H](O)[C@H](OC)C3)[C@H](C)[C@@H](O)CC1=O)[C@H](C)C[C@@H]2OC (stereo partly specified) | 102.3
N#Cc1c(NC(=O)/C=C/c2cccs2)sc2c1CCC2 | 100.1
CN(C)c1ccc(/C=C2\C(=O)N(c3ccccc3)N=C2C(=O)Nc2ccccc2)cc1 | 100.0
NCCOc1ccccc1Cc1ccccc1 | 92.1
COc1ccc2[nH]c(C(=O)N(C)C3CCN(C)CC3)cc2c1 | 90.6
Nc1ccc(C(=O)O)cc1 | 100.0
Cc1ccc(S(=O)(=O)Nc2cccc(C(=O)NCCC(C)C)c2)cc1 | 98.0
CCCN1C(=O)c2ccccc2NC1c1ccc(OC)c(OC)c1 (stereo unspecified) | 100.0
O=C1CC(c2ccccc2)CC(O)=C1C=NCc1ccncc1 (stereo unspecified) | 99.6
COc1ccc(CN2C(=O)C3C4C=CC(C4)C3C2=O)cc1 (stereo unspecified) | 100.3
N#Cc1cc2c(nc1SCC(=O)O)CCC2 | 97.1
O=C(O)CSc1nnc(COc2ccc(Cl)cc2)n1-c1ccc(Br)cc1 | 93.3
O=C(NCC(=O)N1CCc2ccccc21)c1cccc(Cl)c1 | 102.6
COc1cc(C2OCC3C(C)C=C(C)C2C3C)ccc1O (stereo unspecified) | 95.0
CCCc1nc(SCC(=O)c2ccc(Cl)cc2)nc(OC(=O)N(CC)CC)c1C | 94.8
Cc1ccccc1OCC(=O)Nc1cc(Sc2ccccn2)cc(S(=O)(=O)c2ccccc2)c1 | 100.0
O=C(COc1ccccc1)Nc1ccccc1-c1nc2ccccc2o1 | 100.7
Cc1c(C)c(C)c(CSC2CC(=O)N(c3ccccc3)C2=O)c(C)c1C (stereo unspecified) | 101.2

Further records:
SMILES | VACV E9 pol inh
c1ccc(Sc2ncnc3c2oc2ccccc23)nc1 | 100.5
COc1ccc(C(=O)OCC(=O)N(C)Cc2ccccc2)cc1 | 93.5
O=S1(=O)CC2SC(=S)N(Cc3ccccc3)C2C1 (stereo unspecified) | 89.5
O=C(O)CCC(=O)N1CCN(C(c2ccccc2)c2ccccc2)CC1 | 99.3
COc1ccc(-c2c(-c3ccc(OC)cc3)n(Cc3ccc(F)cc3)c3nc[nH]c(=O)c23)cc1 | 100.3
Cc1cc(=O)oc2c3c(ccc12)OC(=O)/C3=C\c1ccccc1 | 97.7
Cc1cc(N=CNc2ccc(Br)c(C)c2)ccc1Br | 95.9
Cc1scc(CSCC(=O)O)c1C | 83.2
COc1ccc(C2C(C(=O)NCCc3ccc(OC)c(OC)c3)c3ccccc3C(=O)N2C)cc1 (stereo unspecified) | 100.0
CC(C)(c1ccccc1)c1cc(CN2CCOCC2)c(O)c(CN2CCOCC2)c1 | 100.8
CCc1ccc(NC(=O)CC(NCc2ccccc2)C(=O)O)cc1 (stereo unspecified) | 100.0
O=C(NCc1ccc(Cl)cc1)c1cc2ccccc2oc1=O | 100.3
CCNc1nc2c(C)cccc2s1 | 103.8
C=CCOc1ccc2c(C)c(CCCC)c(=O)oc2c1 | 100.0
CCOC(=O)c1c(N)sc2c(OCC)c(Br)ccc12 | 99.6
COC(=O)c1ccccc1NC(=O)c1c(C)nc2ccccn12 | 100.0
CCCOc1ccc(-c2cnc(=S)[nH]c2N)cc1 | 99.8
COc1ccc(Nc2nc(-c3ccccc3)cs2)cc1 | 99.0
Nc1nonc1C(=O)OCC(=O)c1ccccc1 | 109.8
O=C(O)CCC12CC3CC(CC(O)(C3)C1)C2 | 99.7
CN(CCOC(=O)c1ccccc1)c1cc(C(F)(F)F)nc2ccccc12 | 99.6
NNC(=O)C1C(C(=O)NN)C1c1ccccc1 (stereo unspecified) | 94.1
NNC(=O)c1cc(-c2ccccc2)n[nH]1 | 107.1
COc1ccc(C2CC(=O)N(CC(=O)Nc3c(C)cc(C)cc3C)c3ccccc3S2)cc1OC (stereo unspecified) | 99.8
O=C(CNS(=O)(=O)c1ccccc1)Oc1ccc2ccc(=O)oc2c1 | 99.8
O=C(Nc1cccc(Cl)c1)c1cc2cc3ccc(Cl)cc3nc2o1 | 102.0
O=C(NCc1nc2ccccc2n1Cc1ccccc1)c1cccs1 | 105.4
Cc1onc(-c2c(Cl)cccc2Cl)c1C(=O)NC1CSC(C)SC1 (stereo unspecified) | 96.0
NC(=O)c1ccccc1NC(=O)CCCOc1ccc(Cl)cc1Cl | 96.9
CN(C)c1ccc(CC(=O)c2nc3ccccc3s2)cc1 | 100.8
CC(C)CNCC1COc2ccccc2O1 (stereo unspecified) | 105.3
O=C(Nc1ccc(Oc2ccccc2)cc1)c1ccc(Cn2c(=O)[nH]c3ccsc3c2=O)cc1 | 99.3
COc1ccc(-c2ccc(/C=C(\C#N)c3ccccc3)o2)cc1 | 96.5
Cc1ccc(OC(=O)c2ccccc2)c(-n2nc3ccccc3n2)c1 | 97.0
O=C(O)c1ccc(NC(=O)C23CC4CC(CC(C4)C2)C3)cc1 | 95.6
CC(C)(C)NC(=O)c1ccc(COCC(F)(F)F)o1 | 99.8
CC(C)CC(C(=O)Nc1ccc(S(N)(=O)=O)cc1)N1C(=O)C2C3C=CC(C3)C2C1=O (stereo unspecified) | 108.0
CCc1nc2cc3sc(CC)nc3cc2s1 | 89.1
CCCC1C(C#N)=C(N)OC2=C1C(=O)CCC2 (stereo unspecified) | 101.6
COc1ccc(C(=O)Cc2ccccc2OC(=O)c2ccccc2)cc1 | 93.5
CC1(C)Cc2cccc(C(=O)NC3CCN(Cc4ccccc4)CC3)c2O1 | 97.9
CCc1cccc(NC(=O)NC2CC(=O)N(C3CCCC3)C2)c1 (stereo unspecified) | 106.8
NC(=O)C(Cc1ccccc1)N1C(=O)C2C3C=CC(C3)C2C1=O (stereo unspecified) | 102.3
O=C(CC1C(=O)N(c2ccccc2)C(=O)N1C1CCCCC1)Nc1ccccc1 (stereo unspecified) | 103.9
Fc1ccc(N=Cc2ccccc2F)cc1 | 100.3
CC[n+]1cccc(-c2nc3ccccc3s2)c1 | 99.8
Cc1cc(CSC(=N)N)cs1 | 90.6
COC(=O)c1sccc1-c1ccc(CN2CCC(c3ccccc3OC)CC2)o1 | 107.4
O=C(Nc1cccc(OC(=O)c2ccc(F)cc2)c1)c1ccc(F)cc1 | 99.1
COC(=O)c1c(C)nn(-c2ccccc2)c1NC(=O)C(C)Oc1ccc(Cl)cc1 (stereo unspecified) | 99.8

Next section
SMILES | VACV E9 pol inh
Cc1ccc(CNC(=O)c2cc3c(=O)n(C)c4ccccc4c3n2C)cc1 | 95.4
Fc1ccc(CNC2=NCCS2)cc1 | 96.4
Cc1ccc(C(=O)OCC2OC3OC(C)(C)OC3C2O)cc1 (stereo unspecified) | 100.9
CCCn1c(N)nc2c1c(=O)n(C)c(=O)n2C | 100.2
O=C(Nc1ccccc1)OC(CN1CCN(c2ccccc2)CC1)C(F)(F)F (stereo unspecified) | 102.5
CN(C)S(=O)(=O)c1ccc(C(=O)Nc2ccccc2)cc1 | 97.2
C(=Nc1cccc(/N=C/c2ccco2)n1)c1ccco1 | 98.7
O=C(COC(=O)CC1CCCC1)Nc1ccc(Br)cc1F | 105.9
CSc1scc2c1-c1nc(SCC(=O)c3ccc(Cl)cc3)ncc1CC2 | 110.5
CCc1ccc(C2/C(=C(/O)c3ccc4c(c3)CC(C)O4)C(=O)C(=O)N2CCOC)cc1 (stereo unspecified) | 101.7
CNC(=O)c1c(C)csc1NC(=O)C(F)(F)F | 94.1
CC(C)NC(=O)CCc1nc2cccnc2n1-c1ccccc1 | 111.8
O=c1oc2c(o1)=C(c1ccccc1)S(=O)(=O)C=2c1ccccc1 | 103.3
CCOC(=O)C1C(=O)CN(c2ccccc2)C1=O (stereo unspecified) | 100.4
CC(NC(=O)c1ccc2nc[nH]c2c1)c1ccccc1 (stereo unspecified) | 94.9
Cc1cc(C)nc(NC(N)=NCCc2c[nH]c3ccccc23)n1 | 84.9*
CCOC(=O)c1[nH]c2ccccc2c1NC(=O)CCc1ccccc1 | 99.4
Cc1nccc2[nH]c(=O)c(C(=O)NC3CCC(C)CC3)cc12 (stereo unspecified) | 110.0
Cc1ccc(C(=O)CCC(=O)NC2=NCCS2)cc1 | 90.6
COc1cc2ccccc2cc1C(=O)NCCC12CC3CC(CC(C3)C1)C2 | 99.8
O=C(O)c1ccccc1C(=O)NCCN1CCNC1=O | 83.4
CC(c1ccc(C(=O)O)o1)N1CCOCC1 (stereo unspecified) | 98.8
COc1cc(S(=O)(=O)N2CCCCCC2)c(OC)cc1Br | 94.2
CSC(=S)OC12CC3CC(CC(C)(C3)C1)C2 | 96.6
O=C(NC(c1ccccc1)c1ccccc1)c1ccc2c(c1)OCCO2 | 104.4
O=C(COC(=O)c1ccccc1Cl)c1cc2ccccc2o1 | 97.2
CCOC(=O)c1ccc(S(=O)(=O)NC2CCCCCCC2)n1C | 97.3
c1ccc(CN2CN=C(Nc3nc4ccccc4s3)NC2)cc1 | 108.5
O=C(O)CCSCc1ccc(Cl)cc1 | 88.2
Cn1c(=O)c(-c2noc(-c3ccccc3)n2)cn(-c2ccccc2)c1=O | 93.2
